Compound activity (PubChem BioAssay)
D2 potentiator: positive allosteric modulators of human D2 dopamine receptor; P14416; DiscoveRx D2 beta-arrestin cells, luminescence, 90 min; 100% = 57 uM dopamine signal; potentiation, % (test concentration not listed); hit rate 0.23% among 360,000; active = potentiation of 50% or more; inconclusive = 30% to 50%; inactive = 30% or less;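 further: compound concentration not given in the record; tested on top of an EC20 dose of dopamine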
Target sequence (P14416 whole entry, looked up): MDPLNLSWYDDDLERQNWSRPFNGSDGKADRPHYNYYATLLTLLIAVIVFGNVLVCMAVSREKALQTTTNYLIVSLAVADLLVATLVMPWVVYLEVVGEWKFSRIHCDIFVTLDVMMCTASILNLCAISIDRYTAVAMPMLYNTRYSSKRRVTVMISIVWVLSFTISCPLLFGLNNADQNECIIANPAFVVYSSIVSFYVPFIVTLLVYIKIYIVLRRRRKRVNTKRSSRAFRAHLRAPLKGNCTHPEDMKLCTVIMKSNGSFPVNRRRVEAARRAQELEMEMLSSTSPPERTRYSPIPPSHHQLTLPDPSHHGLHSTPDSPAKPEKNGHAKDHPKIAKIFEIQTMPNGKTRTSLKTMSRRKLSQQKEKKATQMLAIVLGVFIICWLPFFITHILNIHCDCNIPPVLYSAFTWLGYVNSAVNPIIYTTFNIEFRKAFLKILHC
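PathHunter D2 cells, attached overnight at 37 deg C, received compound in DMSO plus dopamine at EC20 (50 nM final) for 90 min at 37 deg C. Beta-arrestin recruitment was read as luminescence after 1 h with detection reagent at ambient temperature.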
TRPML1 agonist: human mucolipin-1 channel agonism | TRPML1-expressing cells, Ca2+ dye fluorescence, FDSS; host cell line not named in the record; reference of the full effect not given here | activation, % (concentration not given with the values) | Q9GZU1 | hit rate 0.12% among 410,000; in the data active = activation above about 50%; inconclusive = about 30% to 50%; inactive = below about 30%; further: 0% is about no effect; the text of the record puts the active cut at 80%
Target sequence (Q9GZU1 whole entry, looked up): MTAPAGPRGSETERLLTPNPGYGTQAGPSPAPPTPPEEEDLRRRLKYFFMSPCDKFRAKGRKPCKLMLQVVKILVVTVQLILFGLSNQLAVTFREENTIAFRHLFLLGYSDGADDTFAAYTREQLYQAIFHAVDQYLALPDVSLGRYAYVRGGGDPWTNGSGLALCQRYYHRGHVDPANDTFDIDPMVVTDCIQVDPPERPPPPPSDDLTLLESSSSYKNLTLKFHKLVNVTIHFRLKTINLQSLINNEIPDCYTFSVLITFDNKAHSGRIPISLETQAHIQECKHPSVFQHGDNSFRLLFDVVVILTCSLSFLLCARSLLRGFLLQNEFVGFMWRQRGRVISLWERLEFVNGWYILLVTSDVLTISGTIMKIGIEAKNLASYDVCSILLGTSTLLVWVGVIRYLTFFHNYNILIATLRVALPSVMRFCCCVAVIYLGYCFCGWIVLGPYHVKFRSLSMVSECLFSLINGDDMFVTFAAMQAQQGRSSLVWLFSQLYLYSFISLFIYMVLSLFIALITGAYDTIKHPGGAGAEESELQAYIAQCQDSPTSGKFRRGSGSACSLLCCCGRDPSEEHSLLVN
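Cells: TRPML1-DL, 1X Tet inducer, ~16 h at 37 degrees C/5% CO2. Dye: ABD Ca8 no-wash + quencher, 45-90 min RT. Read: 10 s baseline, compound add, 110 s agonist phase; 54-4 EC80 (4uM final), 110 s antagonist phase.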
TRPML1 inh: human mucolipin-1 channel inhibition. Q9GZU1. TRPML1-inducible cells, Ca2+ dye fluorescence, FDSS; hits give low values; inhibition of EC80 agonist-evoked calcium signal. activity change, negative = inhibition, % (test concentration not listed). hit rate 0.02% among 390,000; in the data active means activity change below about -50%; inconclusive means about -30% to -50%; inactive means above about -30%;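 further: stimulus is agonist 54-4 at its EC80 concentration; on the % scale 0 is the no-effect control and ±100 the full control effect; compound concentration not given in the record; the text of the record puts the active cut at -80%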
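TRPML1-DL cells, Tet-induced overnight (~16 h, 37 °C) at 1,500 cells/well, were loaded with Ca8 no-wash dye plus quencher for 45-90 min at room temperature. Compounds were pinned during FDSS kinetic reading; agonist 54-4 at EC80 (4 uM final) then added.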
TRPV1 potentiator: potentiators of human vanilloid receptor 1 (TRPV1) | TRPV1-expressing cells, Fluo-8 calcium influx, capsaicin EC20 potentiation; host cell line not named in the record; control for the full effect not named in the record | potentiation, % at 8.33 µM | AID 540277 | hit rate 0.02% among 320,000; active means potentiation above 80%; inconclusive means 30% to 80%; inactive means below 30%; further: 0% is about no effect
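TRPV1-expressing cells were cultured overnight at 35.5C and loaded with Fluo-8 calcium dye for 40 to 90 min at room temperature. After a 10 s baseline, compound was added and calcium influx was read kinetically for 3 min (ex 480/em 520 nm).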
Six1-Eya2 inh: Six1/Eya2 interaction inhibition. activity change, % (no concentration beside the values). AlphaScreen GST-Six1/His-Eya2 binding, biochemical; hits give low values; control for the full effect not named in the record. AID 651725. hit rate 0.56% among 360,000; in the data active = activity change below about -65%; inconclusive = about -30% to -65%; inactive = above about -30%; further: on the % scale 0 is the no-effect control and ±100 the full control effect; compound concentration not given in the record
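AlphaScreen with GST-Six1 and His-Eya2 (5X mix: 250 nM and 500 nM), glutathione donor and nickel acceptor beads; buffer 50 mM Tris pH 8.0, 300 mM NaCl, 1 mM TCEP; 1 h at 37 C in the dark.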
CtBP-E1A blk: CtBP/E1A binding inhibition | hit rate 0.49% among 340,000 | AlphaScreen GST-E1A/His-CtBP binding, 1536-well; hits give low values; control for the full effect not named in the record | AID 651724 | activity change, % (no concentration beside the values); in the data active means activity change below about -65%; inconclusive means about -30% to -65%; inactive means above about -30%; further: on the % scale 0 is the no-effect control and ±100 the full control effect; compound concentration not given in the record
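Homogeneous bead-based format: GST-tagged E1A captured on glutathione donor beads, His-tagged CtBP on nickel acceptor beads; compounds precede bead addition by 2 h at 37 °C.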
* = called active by the depositor; ? = inconclusive; . = not tested or not shown. No enrichment for hits, and some 0.95% of all compounds hit somewhere here.

SMILES	D2 potentiator	TRPML1 agonist	TRPML1 inh	TRPV1 potentiator	Six1-Eya2 inh	CtBP-E1A blk
COc1ccc(-c2nc(SC)n(C)c(=O)c2C#N)cc1OC	0	0.3	-28	15	-8	-19
COC(=O)c1ccccc1S(=O)(=O)N1CCC(C(=O)OC(C)C(=O)N(C)Cc2ccccc2)CC1 (stereo unspecified)	2	0.9	-4	.	5	-8
O=C([C@@H]1CCCN1C(=O)c1cccs1)N1CCN(S(=O)(=O)c2ccccc2F)CC1	1	-1.4	11	0	3	.
Cc1ccc(C(=O)CCC(=O)OCC(=O)Nc2c(C)nn(-c3ccccc3)c2C)cc1	5	0.0	9	-27	-2	-21
CCCC(=O)Nc1cccc(-c2nc3cc(C)c(C)cc3o2)c1	-13	-0.4	7	7	-2	-11
CCc1nc2ccccc2c2nc3ccccc3n12	-3	1.9	-15	7	-16	-18
CCCCNC(=O)C[C@@H]1C[C@@]2(C(=O)OCC)CCC=C2N(Cc2ccc(Cl)cc2Cl)C1=O	.	4.8	.	.	5	3
CC(=O)Nc1cccc(-c2nn[nH]n2)c1	-5	-0.1	56	1	-4	-1
COC(=O)c1cc(OC)c(OC)cc1NC(=S)N1CCC(C(N)=O)CC1	-2	-0.3	-1	1	-1	-7
O=C(Nc1ccc(F)cc1F)NC1CCCc2ccccc21 (stereo unspecified)	-9	0.2	-9	3	4	5
CCC(C(=O)NCCCc1ccccc1)c1ccccc1 (stereo unspecified)	-29	1.6	-7	-16	-1	6
N#Cc1c(-c2cccs2)cc(-c2cccnc2)nc1N	-1	-1.3	-1	-4	-7	-10
Cc1ccc(-n2nnnc2SC(C(=O)c2c[nH]c3ccccc23)c2ccccc2)cc1 (stereo unspecified)	-1	0.7	4	-5	7	6
O=C(CN1C(=O)c2ccc([N+](=O)[O-])cc2C1=O)NC1CCCCCC1	26	-0.4	-7	3	3	1
c1ccc(N2CCN(Cc3cn4cccnc4n3)CC2)cc1	-5	0.0	19	.	1	1
O=C(COC(=O)c1ccc(S(=O)(=O)N2CCCCCC2)cc1)NCc1ccc(Cl)cc1	0	0.0	-11	5	5	3
COc1ccc(C(CNC(=O)c2c(C)nn(Cc3ccccc3)c2Cl)N2CCOCC2)cc1 (stereo unspecified)	-16	-0.7	-8	4	0	.
COC(=O)C1=C(C)N(Cc2ccccc2)C(=O)N[C@H]1CCc1ccccc1	-16	-0.2	0	.	1	2
CCCCOc1ccc(CN2CCC(O)CC2)cc1	-7	0.1	-1	10	2	4
CCCCC[C@@H]1C=C(C(=O)O)[C@H](c2ccc(Br)cc2)N1S(=O)(=O)c1ccc(C)cc1	.	0.7	4	.	-5	6
Cc1cc(=O)n2nc(N3CCCC(C(=O)NCCCN4C(C)CCCC4C)C3)sc2n1 (stereo unspecified)	-4	0.0	8	.	-7	1
O=c1c(Cc2ccc(F)cc2)c(O)ccn1CCCN1CCOCC1	1	-0.2	-7	-9	23	.
Cc1ccc(NC(=O)N(CCC(=O)O)Cc2ccccc2)cc1	-6	0.0	11	?	7	-4
COc1ccc(C2/C(=C(/O)c3ccc(C)cc3)C(=O)C(=O)N2c2ccccn2)cc1OC (stereo unspecified)	-20	-0.4	1	30	4	.
CCCN1CCN(CCCNC(=O)CN2C(=O)COc3ccccc32)CC1	-18	-0.4	-9	-5	0	7
COc1ccccc1NC(=O)Nc1nc(CC(=O)N2CCN(c3ccccc3F)CC2)cs1	16	-0.2	-16	-3	-11	-7
CN(C)/C=C/C(=O)c1ccccc1F	-6	-0.3	1	13	-2	-3
O=C(OCc1cc2ccccc2[nH]c1=O)c1cccnc1	-8	0.5	1	2	7	3
Cc1ccc(S(=O)(=O)Nc2nc(C)c(C(=O)N/N=C/c3ccccc3)s2)cc1	-4	1.9	-1	7	-29	-17
Cc1ccc(NC(=O)CCN2C(=O)c3ccccc3C2=O)cc1C	-10	0.9	-11	3	10	.
CCOc1ccc(C(=O)N[C@H](C(=O)Nc2ccc(OC)c(S(=O)(=O)N3CCOCC3)c2)C(C)C)cc1	12	1.4	2	3	-7	.
CN1CCN(Cc2c(C(=O)N/N=C/c3cccc(Br)c3)nnn2-c2nonc2N)CC1	1	9.3	-4	8	5	.
Cc1ccc(/C=N/n2c(COc3ccccc3)n[nH]c2=S)o1	-15	0.7	-3	-18	0	.
O=[N+]([O-])c1cccc(CSc2nnc(Cc3ccccc3)n2-c2ccc(F)cc2)c1	-13	2.5	17	-5	-13	-12
CC(C)=CC(=O)OCC(=O)Nc1ccc(SC(F)F)cc1	-1	1.0	49	-25	-1	-1
S=C(NN=C1CCN(Cc2ccccc2)CC1)NC1CCCCC1	-20	-0.2	1	-10	-10	-10
Cc1ccc(NS(=O)(=O)c2cc(C(=O)NCCSc3ccc(C)cc3)ccc2C)cc1	-1	2.7	16	-2	-2	-2
CCOc1ccc(C(=O)C2CCN(CC(=O)Nc3nccs3)CC2)cc1	-9	-0.6	-10	-11	-3	-1
Cc1cc(-n2ccc(=O)[nH]c2=O)nc(-c2ccccc2)n1	6	3.6	-6	19	0	0
COc1ccc(CN2CCNC(=O)C2CC(=O)NCCC2=CCCCC2)c(F)c1 (stereo unspecified)	-7	-0.2	0	-11	0	-3
CCOC(=O)C1(Cc2ccccc2)C(=O)Nc2ccccc21 (stereo unspecified)	-3	2.5	55	.	1	15
CC(C)CN(C(=O)c1nn(C)c(=O)c2ccccc12)c1nc2ccccc2s1	16	-1.0	-7	8	9	-12
O=C(Cc1ccc(Br)cc1)OCC(=O)c1ccc[nH]1	1	0.1	-7	.	0	0
O=C(CCCc1nc(-c2ccccc2Cl)no1)NCc1cccnc1	14	0.5	-5	-16	9	3
Cc1cc(C)cc(OCc2nc3ncc(Br)cc3[nH]2)c1	-2	0.0	11	.	10	12
COc1ccc(CC(=O)N[C@@H]2c3cc(OC)c(OC)cc3C[C@H]2O)cc1	.	-0.6	4	.	-3	4
Cn1c(SCC(=O)NCC2CCCO2)nc2c([nH]c3ccccc32)c1=O (stereo unspecified)	5	0.0	20	3	1	-5
Cc1ccc2nc(N(CCCN(C)C)C(=O)c3ccc4ncsc4c3)sc2c1	-38	1.3	7	-17	-10	-10
CN(C(=S)Nc1ccc(SC(F)F)cc1)c1ccc(O)cc1	?	0.0	12	-2	-2	-3
COC(=O)c1ccc(Nc2nc(C)cc(C)n2)cc1	-6	-0.9	-2	5	-1	0
CCOC(=O)C1=C(C)NC2=C(C(=O)CC(C)(C)C2)C1c1cccc(C)n1 (stereo unspecified)	-2	-0.2	-1	5	9	10
Cn1c(=O)n(-c2cccc(Cl)c2)c(=O)c2c3c(sc21)COC(C)(C)C3	-16	1.7	28	8	2	-6
CC(NC(=O)C(=O)N1CCCCC1)C(c1cccs1)N1CCN(C)CC1 (stereo unspecified)	-4	0.4	-14	-14	2	-12
CC(=O)C(=Nc1ccccc1Cl)NNc1ccc(Cl)cc1	?	0.3	-2	20	-73*	?
Cc1ccc2c(c1)NC(=O)[C@@]1(C)[C@@H](c3ccccc3)[C@H]3COc4ccccc4[C@@H]3N1C2=O	-18	-0.5	1	?	-11	-12
COCc1cc(=O)[nH]c(-c2ccccc2OC(F)(F)F)n1	11	0.4	-23	?	7	.
Cc1cc(/C=C(\C#N)C(=O)Nc2ccccc2)c(C)n1-c1ccc(C(=O)O)cc1	-6	.	.	.	-10	-19
CNCc1ccccc1OCc1ccccc1F	-18	-1.0	19	3	-2	-1
O=c1oc2ccccc2c(NCc2ccccc2F)c1[N+](=O)[O-]	-2	0.2	15	4	4	-16
CC1(C)CC(CCN(Cc2ccccc2)C(=O)c2ccco2)(c2ccccc2)CCO1 (stereo unspecified)	8	2.7	47	-7	-15	3

As a working copy, some entries already given.
SMILES	D2 potentiator	TRPML1 agonist	TRPML1 inh	TRPV1 potentiator	Six1-Eya2 inh	CtBP-E1A blk
CCOC(=O)C1(Cc2ccccc2)C(=O)Nc2ccccc21 (stereo unspecified)	-3	2.5	55	.	1	15
CC(C)CN(C(=O)c1nn(C)c(=O)c2ccccc12)c1nc2ccccc2s1	16	-1.0	-7	8	9	-12
O=C(Cc1ccc(Br)cc1)OCC(=O)c1ccc[nH]1	1	0.1	-7	.	0	0
O=C(CCCc1nc(-c2ccccc2Cl)no1)NCc1cccnc1	14	0.5	-5	-16	9	3
Cc1cc(C)cc(OCc2nc3ncc(Br)cc3[nH]2)c1	-2	0.0	11	.	10	12
COc1ccc(CC(=O)N[C@@H]2c3cc(OC)c(OC)cc3C[C@H]2O)cc1	.	-0.6	4	.	-3	4
Cn1c(SCC(=O)NCC2CCCO2)nc2c([nH]c3ccccc32)c1=O (stereo unspecified)	5	0.0	20	3	1	-5

More results follow.
SMILES	D2 potentiator	TRPML1 agonist	TRPML1 inh	TRPV1 potentiator	Six1-Eya2 inh	CtBP-E1A blk
N#Cc1ccccc1OCC(=O)Nc1cccc(S(=O)(=O)N2CCCCCC2)c1	-10	0.7	32	-3	-12	0
CCOc1ccc(N2C(=O)CN(C)C2=S)cc1	-1	-0.5	-1	-1	2	-6
Cc1cc(OC(=O)c2ccccc2Cl)cc(=O)n1C	4	0.6	14	-7	?	-1
COc1ccc(S(=O)(=O)Nc2ccc3c(c2)C(=O)N([C@H](C)CO)C[C@H](C)[C@H](CN(C)Cc2ccc(C(=O)O)cc2)O3)cc1	-5	0.0	0	.	0	6
CN(C)CCNC(=O)c1cccc(-c2cnc3c(NC=O)cc(-c4cccc(C(F)(F)F)c4)cn23)c1	-5	-0.4	.	.	5	-12
CCc1ccccc1NC(=O)CCCSc1nc2ccccc2s1	-4	-1.2	-3	3	4	.
COc1ccc(Cn2c(CCC(=O)NCCC(C)C)nc3ncccc3c2=O)cc1	5	1.4	11	14	1	5
Cc1ccccc1NC(=S)NNC(=O)c1ccco1	-28	3.2	4	-1	1	8
COc1ccc2cc(C(=O)C3CCCN(Cc4cnc(N5CCOCC5)s4)C3)ccc2c1 (stereo unspecified)	-5	-0.1	-7	-20	-28	-17
Nc1ccc(S(=O)(=O)c2cc(O)c3ccccc3c2O)cc1	51*	1.1	12	.	-14	-11
O=C(NCc1cccnc1)c1cc(C2CCCCN2S(=O)(=O)c2ccc(F)cc2F)on1 (stereo unspecified)	-10	-0.9	.	.	2	-3
Cc1nnc(NC(=O)c2c(F)cccc2F)s1	-6	-0.5	9	25	2	-1
Cc1ccc(CNC(=O)c2cc(S(=O)(=O)N3CCOCC3)cn2C)cc1	0	-0.5	4	23	5	3
OCC[C@H]1C[C@@H](O)[C@H](O)[C@]2(CCCCO2)O1	-1	0.0	8	-1	1	6
COc1ccc(S(=O)(=O)N(Cc2ccco2)Cc2cc3ccccc3[nH]c2=O)cc1	-4	-1.2	9	-7	-11	-14
Cc1ccc(-c2nn(-c3ccccc3)cc2CN(C)C(=O)CCC(=O)O)cc1C	-8	-0.3	3	5	-4	9
COc1ccc(N2CCN(C(=O)CNC(=O)c3ccccc3Cl)CC2)cc1	1	-0.6	5	-12	-4	-2
Oc1c(Cl)cc(Cl)cc1C=Nc1cc(C(F)(F)F)ccc1N1CCc2ccccc2C1	-27	0.1	-5	29	0	.
COCCNC(=S)N/N=C(\C)c1ccc(C)c([N+](=O)[O-])c1	-6	0.2	22	-1	-10	-16
